# NPR1 antag = antagonists of human natriuretic peptide receptor Npr1; P16066; HEK293 hNpr1 GloSensor cGMP, ANP-stimulated luminescence; Potency, µM (series often up to 46.3 µM), without a hit: at the top dose activity change, negative = inhibition, most hits filed as inhibitors; hit rate 1.6% among 76,000; active = well fitted inhibition curve with a large enough effect; inconclusive = small, poorly fitted or top-dose-only effect; inactive = no such curve, though single readings can be large or run the other way;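 further: nearly all actives have a fitted effect of over 60% in size; nearly all hits also lower the signal before the agonist is added; a reference antagonist and vehicle were the controls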
# Target sequence (P16066 whole entry, looked up): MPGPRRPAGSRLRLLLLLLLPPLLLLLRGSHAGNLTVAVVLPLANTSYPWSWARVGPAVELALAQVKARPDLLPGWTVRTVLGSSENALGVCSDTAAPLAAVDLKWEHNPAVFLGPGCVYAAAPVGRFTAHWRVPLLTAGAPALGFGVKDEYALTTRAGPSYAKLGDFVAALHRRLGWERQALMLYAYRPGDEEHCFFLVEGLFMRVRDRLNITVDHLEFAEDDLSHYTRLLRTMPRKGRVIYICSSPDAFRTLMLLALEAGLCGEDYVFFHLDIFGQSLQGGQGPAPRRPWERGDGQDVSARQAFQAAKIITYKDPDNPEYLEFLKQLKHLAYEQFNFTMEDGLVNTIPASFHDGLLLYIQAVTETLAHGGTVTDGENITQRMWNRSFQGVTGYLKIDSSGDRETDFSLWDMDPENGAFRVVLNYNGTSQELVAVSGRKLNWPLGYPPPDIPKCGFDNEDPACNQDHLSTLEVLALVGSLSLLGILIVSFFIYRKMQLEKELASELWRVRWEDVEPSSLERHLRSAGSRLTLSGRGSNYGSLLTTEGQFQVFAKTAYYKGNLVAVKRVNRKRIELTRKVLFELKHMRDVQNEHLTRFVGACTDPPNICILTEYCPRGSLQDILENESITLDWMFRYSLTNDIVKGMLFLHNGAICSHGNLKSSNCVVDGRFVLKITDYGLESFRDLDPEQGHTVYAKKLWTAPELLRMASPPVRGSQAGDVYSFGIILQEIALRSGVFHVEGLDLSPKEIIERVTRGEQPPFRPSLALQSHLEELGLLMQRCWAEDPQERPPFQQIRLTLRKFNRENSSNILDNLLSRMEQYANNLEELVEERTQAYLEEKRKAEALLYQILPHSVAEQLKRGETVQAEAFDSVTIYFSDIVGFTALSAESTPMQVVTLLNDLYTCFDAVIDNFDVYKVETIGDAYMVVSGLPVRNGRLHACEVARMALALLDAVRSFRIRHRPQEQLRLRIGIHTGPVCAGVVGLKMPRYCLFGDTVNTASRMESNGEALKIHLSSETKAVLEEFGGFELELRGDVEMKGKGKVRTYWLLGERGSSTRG
#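 HEK293 cells stably expressing human Npr1 and cGMP GloSensor pGS-40F, loaded 2 h with 2% GloSensor reagent, given compound 30 min at room temperature. Luminescence read before and 20 min after 0.1 nM hNppA.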
# The depositor's hits bear a star; ? = inconclusive; [ ] = another dose, or the depositor's remark. On the % scale 0 is the no-effect control and ±100 the full control effect; potency means the concentration at half of the fitted maximal effect. This is a subset; count on the stated rates, not on these rows.
SMILES,NPR1 antag
O=C(NC[C@H]1OC[C@@H](NC2CCCCC2)[C@@H]1O)c1cccs1,0%[70.6 µM]
O=C(Cn1c2c(c(=O)n1Cc1ccccc1)CCN(Cc1ccccc1)C2)NCc1cccc(Cl)c1,-3%
NC(=O)[C@@H](Cc1ccccc1)NC(=O)C1=C[C@@H](NC(=O)c2cnccn2)[C@@H](O)[C@H](O)C1,3%[70.6 µM]
COc1ccc2nc3n(c2c1)[C@@H](CNCc1ccccc1)COC3,?
O=C(Cc1cccs1)N1CCCn2cc(-c3ccccc3F)nc21,5%
CCN1CC(C(=O)NCc2noc(Cc3ccccc3)n2)CCC1=O (stereo unspecified),2%
CCOCCn1c(=O)[nH]c2cc(C(=O)N(C)Cc3ccncc3C)ccc21,-2%
O=C(c1ccccn1)N1CCCC2(CNc3ccccc3[S+](=O)([O-])N2)C1 (stereo unspecified),-3%
CN1CC(=O)N(c2ccccc2F)Cc2c(NCC3CC3)ncnc21,6%[70.6 µM]
COc1ccc(S(=O)(=O)N2CCC(Cc3nncn3-c3ccccc3)CC2)cc1,-13%
C[S+](=O)([O-])N1CC2(Cc3ccccc31)CN(C(=O)c1ccc(F)cc1)C2,1%
OCCC1CN(c2nc(-c3ccccc3)nc3c2CCC3)CCN1C1CCCC1 (stereo unspecified),1%
O=C1CC2(CCN(C(=O)c3ccccc3)CC2)Oc2ccccc21,2%[70.6 µM]
CN(C)C(=O)C1CN(Cc2ccccc2)C(=O)N1 (stereo unspecified),26%[230 µM]
CCCN1C(=O)CCc2cc(NC(=O)Cc3ccccc3OC)ccc21,0%
O=C(Cc1ccc(F)cc1)N1CCCC(c2nn(-c3ccc(F)cc3)c(=O)[nH]2)C1 (stereo unspecified),0%
c1ccc2cc(-c3noc([C@@H]4Cc5nc[nH]c5CN4CC4CCCCC4)n3)ccc2c1,-17%[70.6 µM]
Cc1cnc(C(=O)N2CCC3(CC2)CC(N(Cc2ccc(F)cc2)C2CC2)CCO3)cn1 (stereo unspecified),13%
Cc1ccc(CN2C(=O)NC3(CCCN(C(=O)c4cc(Cl)ccc4F)C3)C2=O)cc1 (stereo unspecified),-23%
CSc1cccc(NC(=O)N[C@H]2C[C@@H](C(=O)N[C@H](Cc3c[nH]c4ccccc34)C(N)=O)N(C(=O)C=C(C)C)C2)c1,6%
CC(C)c1nnc(C2CN(C(=O)c3ccc(F)c(F)c3)CC23CCOCC3)o1 (stereo unspecified),-3%
CN1C[C@H](O)C[C@H]1c1nnc2n1CCN(C(=O)Cc1cccc(F)c1)CC2,2%
O=C(NCc1ccccc1F)c1ccc2c(c1)CNCCO2,-2%
COC(=O)[C@H](CC1CCCCC1)NC(=O)[C@@H]1CN(C(=O)c2cccnc2)CCN1S(C)(=O)=O,-1%

# Overlap with the part before: 2 compounds; new compounds follow.
SMILES,NPR1 antag
O=C(NCc1ccccc1F)c1ccc2c(c1)CNCCO2,-2%
COC(=O)[C@H](CC1CCCCC1)NC(=O)[C@@H]1CN(C(=O)c2cccnc2)CCN1S(C)(=O)=O,-1%
CC(C)CC1=NS(=O)(=O)c2cc(NC(=O)C3CC3)ccc2N1c1ccccc1,0%
O=[S+]1([O-])NC2(CCN(Cc3ccc(C(F)(F)F)cc3)C2)CNc2ccccc21 (stereo unspecified),?
CNc1nccc(N2CCC(CC(=O)NCCOC)CC2)n1,-3%
COc1cccc(N2CCN(c3nc(C(=O)NCc4ccco4)cs3)CC2)c1,-9%
O=C(NC1CC(c2cc(NCCO)ncn2)C1)c1cc2ccccc2[nH]1 (stereo unspecified),-15%
COc1cccc(C(=O)N2CCn3nnc(CCC(=O)NC4CC4)c3C2)c1,1%
COc1cc(=O)n2c(c1C(=O)NC1CCCCCC1)CCCC2,2%
Cc1nn(CC(=O)O)c(=O)c2nc(-c3ccccc3)sc12,0%
O=C(c1cccnc1)N1CC[C@H]2COC(=O)N2c2cc(F)ccc2C1,-2%[70.6 µM]
Cc1ccc(C2=NC3(CCN(C(=O)c4ccc[nH]4)CC3)ON2)cc1,-17%
COc1ccc(S(=O)(=O)N2[C@@H]3CC[C@H]2CC(NC(=O)c2ccc(F)cc2)C3)cc1OC (stereo partly specified),-10%
COCCc1nc(-c2cnc(C3CC3)nc2)n(-c2ccc(F)cc2F)n1,1%
Cc1cc(C[C@@H]2COC[C@@H]2NC(=O)c2ccc(S(N)(=O)=O)cc2)on1,0%
COc1ccc(-c2nccc3c(=O)cc(N(C)C)oc23)cn1,2%[70.6 µM]
O=C(Nc1ccc([C@H]2OCC(=O)N(Cc3ccc(F)cc3)[C@@H]2CO)cc1)c1cccc(F)c1,-4%
Cc1ccc(C)c(-c2cc3c(=O)n(CCNC(=O)c4ccccc4F)ccn3n2)c1,-15%
CCN(CC)C(=O)C(NC(=O)c1ccc(OC)cc1)C1CCN(C(C)=O)CC1 (stereo unspecified),-3%
O=C(Nc1cccc(-c2nnc3n2CCCC3)c1)c1cc(F)cc(F)c1,0%
COCCn1c(=O)c2c(n1Cc1ccccc1)CN(C(=O)c1ccc(Oc3ccccc3)cc1)CC2,-3%
CO[C@H]1C(=O)N(C2CCN(C(=O)Cc3c[nH]c4ccccc34)CC2)[C@H]1c1ccncc1,-3%
CN1CCC(O)(c2csc(CN3CC[C@@H](O)C3)n2)CC1,-8%[70.6 µM]
COc1ccc(OCc2nc(C3CN(C(=O)c4ccc5nc[nH]c5c4)C3)no2)cc1,?
Cc1ccc2c(c1)C(C[C@H]1CN(C(=O)CC(C)(C)C)CC[C@H]1CC(=O)O)=NCC2,0%[70.6 µM]
Cc1n[nH]c(C)c1CNC(=O)CCC[C@H]1NC[C@@H]2C[C@H]1CN(Cc1ccccc1)C2,-5%
CCc1nnsc1C(=O)N1CCCC(c2nccn2Cc2cccnc2)C1 (stereo unspecified),1%
O=C(C1CC1)N1CCCCCC1c1nnc(-c2ccccc2)o1 (stereo unspecified),6%
Cc1nc(C)c(C(=O)N2CCOCC2CC(=O)NCc2cccnc2)s1 (stereo unspecified),0%
Cn1c(CCNC(=O)Cn2nc3c(cc2=O)CCCCC3)nc2ccccc21,-1%
C=CCNC(=O)CCc1c(C)nn(-c2ccc(F)cc2)c1Oc1ccccc1OC,-2%
O=c1[nH]c(C2CCN(Cc3ccsc3)CC2)nn1Cc1ccccc1,12%
CCN(CC)C(=O)c1c(-c2ccc(F)cc2)noc1[C@H](C)O,-6%[70.6 µM]
N#Cc1ccc(C(=O)NC2CCCN(c3cc(-c4ccc(Cl)cc4)[nH]n3)C2)cc1 (stereo unspecified),-7%
O=C(C[C@H]1NC(=O)c2ccccc2NC1=O)NCCc1nc(-c2ccccc2)cs1,-10%
COCCNC(=O)c1nc2c(o1)CCN(Cc1ccc(F)c(Cl)c1)CC2,?
COCCNC(=O)CCCN1C(=O)COc2ccc(C(=O)COc3ccc(C)cc3C)cc21,-2%
O=C(NCCC1CCN(C(=O)Nc2cc(F)cc(F)c2)CC1)c1ccccn1,-1%
Cc1cc(C)cc(NC(=O)N2[C@@H]3CC[C@H]2CC(NC(=O)c2ccc(F)cc2)C3)c1 (stereo partly specified),-6%
OCc1ccc(CN2C[C@H](O)C[C@H]2c2nc(Cc3ccc(F)cc3Cl)no2)o1,6%[70.6 µM]
CN1C[C@H](O)C[C@H]1c1nnc2n1CCN(Cc1ccc3c(c1)CCO3)C2,10%
CC(C)=CCC1(CO)CCCN(C(=O)c2cccc(CO)n2)C1 (stereo unspecified),4%
Nc1nc(NCc2ccc(N3CCCC3=O)cc2)cc(C2CC(O)C2)n1 (stereo unspecified),0%
Cc1cc(NC(=O)c2ccc3c(c2)N(C)C2CCCCN2C3=O)ccc1F (stereo unspecified),-24%
CC(C)c1cccc(C(C)C)c1NC(=O)N1CCc2c(c3cc(F)ccc3n2C)C1,2%
COC(=O)[C@H](Cc1ccc(OC)cc1)NC(=O)[C@H]1CN(C(=O)c2cccnc2)CCN1C(=O)NC1CCCCC1,-1%
COCCn1cnnc1CNc1cc(-c2ccncc2)nc2ccnn12,-3%
COc1ccc(CN2CC3(CCN(S(=O)(=O)c4cn(C)cn4)CC3)C2=O)cc1,1%
Cc1ccc(-c2ccc3nnc(CNC(=O)Cc4cccc(C)c4)n3n2)cc1,4%
COCCC(=O)NCCC1CCN(C(=O)Nc2cc(F)cc(F)c2)CC1,-1%

# Overlap with the part before: 6 compounds, followed by the next part.
SMILES,NPR1 antag
CC(C)c1cccc(C(C)C)c1NC(=O)N1CCc2c(c3cc(F)ccc3n2C)C1,2%
COC(=O)[C@H](Cc1ccc(OC)cc1)NC(=O)[C@H]1CN(C(=O)c2cccnc2)CCN1C(=O)NC1CCCCC1,-1%
COCCn1cnnc1CNc1cc(-c2ccncc2)nc2ccnn12,-3%
COc1ccc(CN2CC3(CCN(S(=O)(=O)c4cn(C)cn4)CC3)C2=O)cc1,1%
Cc1ccc(-c2ccc3nnc(CNC(=O)Cc4cccc(C)c4)n3n2)cc1,4%
COCCC(=O)NCCC1CCN(C(=O)Nc2cc(F)cc(F)c2)CC1,-1%
COc1ccc(C(=O)NC2CCCN(c3cc(-c4ccc(Cl)cc4)[nH]n3)C2)cc1 (stereo unspecified),-25%
O=[S+]([O-])(c1cccc(C(F)(F)F)c1)N1CC(CNc2cccnc2)C2(CN(c3ccccc3)C2)C1 (stereo unspecified),4%
COc1cccc(C(=O)N2CCC3(CC2)CC(O)CCO3)c1OC (stereo unspecified),0%
Fc1ccc(OCc2nc(-c3nnn4c3COC(c3ccccc3Cl)C4)no2)cc1 (stereo unspecified),4%
O=C(N1CCc2c(nc[nH]c2=O)C1)C1(S(=O)(=O)c2ccccc2)CC1,3%
Cc1cnc(C2CC2)n1CCNC(=O)C1CCN1C1CCCCC1 (stereo unspecified),-9%
O=C(C1CCCN(c2nc(-c3ccccc3)nc3c2CCC3)C1)N1CCCNCC1 (stereo unspecified),1%
CCOc1ccccc1C(=O)N1CCC(Cc2nc(-c3ccc(OC)cc3)no2)CC1,11µM*
COCc1cn([C@H]2CO[C@H]3[C@@H]2OC[C@@H]3NC(=O)c2ccc(N(C)C)cc2)nn1,5%[70.6 µM]
CCCN(CC1CCOC1)C(=O)NC (stereo unspecified),-1%
O=C(NCc1ccc(Cl)cc1)c1ccc(CN2C(=O)NC3(CCOCC3)C2=O)cc1,?
O=c1c2nc(-c3ccccc3)ccc2ncn1Cc1ccccc1,-7%[70.6 µM]
Cc1csc(S(=O)(=O)N2CCOC(CCc3ccccc3)C2)c1 (stereo unspecified),1%
CCN1C(=O)C2(CCN(S(=O)(=O)c3ccc(OC)cc3)CC2)c2ccccc21,8%
CN(Cc1ccc(F)cc1)C(=O)c1cn(Cc2ccccc2C(F)(F)F)nn1,4%
CN(C)c1cccc(C(=O)N2CCN(C(=O)c3nnn4c3COC(c3ccccc3)C4)CC2)c1 (stereo unspecified),-5%
O=C(NC1CCN(c2cc(-c3ccc(F)cc3)[nH]n2)CC1)c1ccncc1,-17%
CC1(C(=O)N2CCN(c3ccccn3)CC2)CCCCC(=O)N1 (stereo unspecified),2%
COCCNC(=O)[C@@H]1CCC[C@@H](NC(=O)C2CC2)CN(C)C(=O)C1,-7%[70.6 µM]
O=C(C[C@@H]1CCNC[C@@H]1Cc1cc(-c2ccc(F)cc2)on1)NCc1cccnc1,-2%[70.6 µM]
Cc1ccccc1-c1nccc2c(=O)cc(C3=CCOCC3)oc12,1%[70.6 µM]
CCn1c2c(c(=O)n1-c1ccccc1)CCN(Cc1cccnc1OC)C2,-1%[70.6 µM]
CC1(c2ccccc2)N(Cc2ccccc2C#N)C(=O)OC12CCN(Cc1ccccn1)CC2 (stereo unspecified),-14%
COc1cc2c(cc1O)NC(=O)CC2c1cn[nH]c1-c1cc(C)ccc1C (stereo unspecified),2%

# Four of these compounds, set out differently:
Structure	NPR1 antag
c1ccc2cc(-c3noc([C@@H]4Cc5nc[nH]c5CN4CC4CCCCC4)n3)ccc2c1	-17%[70.6 µM]
Cc1cnc(C(=O)N2CCC3(CC2)CC(N(Cc2ccc(F)cc2)C2CC2)CCO3)cn1 (stereo unspecified)	13%
Cc1ccc(CN2C(=O)NC3(CCCN(C(=O)c4cc(Cl)ccc4F)C3)C2=O)cc1 (stereo unspecified)	-23%
CSc1cccc(NC(=O)N[C@H]2C[C@@H](C(=O)N[C@H](Cc3c[nH]c4ccccc34)C(N)=O)N(C(=O)C=C(C)C)C2)c1	6%

# More compounds follow.
SMILES,NPR1 antag
Cc1ccc(C(=O)N2CCC3(CC2)NCCc2c3[nH]c3ccccc23)s1,-11%
CCCNC(=O)Cc1csc2nc(C)c(-c3cc(C)n(-c4ccc(C(C)C)cc4)n3)c(=O)n12,1%
CN(C)C[C@@H]1CN(Cc2ccncc2)C[C@H]1NC(=O)C1CCOCC1,-2%
O=C1N(CC2CCC2)CCCC12CCN(Cc1ccc(-c3ccn[nH]3)s1)C2 (stereo unspecified),-2%
CC(C)c1ccc(NC(=O)C2CCN(C(=O)c3ncn4c3COC(c3ccc(F)cc3)C4)CC2)cc1 (stereo unspecified),?
O=C(Cc1cc2c(cc1Cl)OCCO2)N[C@@H]1COCC[C@@H]1OCC1CC1,0%
O=C(NCc1cccc(F)c1)c1cnc2c(c1)N(C(=O)CCc1ccccc1)CCC2,-2%[70.6 µM]
O=C1NC2(CN([S+](=O)([O-])c3ccsc3)C2)Oc2ccccc21,-20%[70.6 µM]
CO[C@@H]1COCC[C@H]1NC(=O)CCc1ccc(-c2ccc(Cl)cc2)[nH]1,-16%
O=C(c1ccc(C(F)(F)F)s1)N1CCc2c(nc(-c3ccccc3)[nH]c2=O)C1,0%
CN(Cc1nc2ccc(Cl)cc2[nH]1)C(=O)c1ccc2cccc(F)c2n1,-9%

# Compound activity deposited in PubChem by National Center for Advancing Translational Sciences (NCATS).
